From PubChem BioAssay
Yeast UUG start: alters start codon recognition fidelity in yeast; S. cerevisiae UUG-firefly luciferase reporter, luminescence/redox ratio; activity score, % at 18.7 µM; 350,000 compounds, 0.13% hits;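 active = replicate mean at a twofold rise or more, about +100% in these data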;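 also: firefly luciferase made from a UUG start codon reports start codon fidelity; reporter light over untreated wells divided by growth signal over untreated wells; some hits fall short of that in this replicate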
* = called active by the depositor. An excerpt (hit frequency here may not be typical).

SMILES	Yeast UUG start
C[C@@H]1CN([C@@H](C)CO)C(=O)Cc2cc(NC(=O)Nc3ccccc3)ccc2O[C@H]1CN(C)CC1CCCCC1	-9
C[C@@H]1CN([C@H](C)CO)C(=O)c2cc(NC(=O)CCC(F)(F)F)ccc2O[C@@H]1CN(C)Cc1ccc(-c2ccccc2)cc1	8
COc1ccc(NC(=O)N2CC[C@@H]3[C@@H](CO)N(C)c4ccc(-c5cccc(C(=O)N(C)C)c5)cc4[C@@H]32)cc1	10
O=C(Nc1ccc(Cl)cc1)N1C[C@@H]2[C@H](c3ccccc31)[C@@H](CO)N2C(=O)C1CC1	-12
Cc1noc(C)c1NC(=O)Nc1ccc2c(c1)C(=O)N([C@H](C)CO)C[C@@H](C)[C@@H](CN(C)Cc1ccc(C(=O)O)cc1)O2	-11
Cc1noc(C)c1S(=O)(=O)N(C)C[C@@H]1OCc2cn(nn2)CCCC(=O)N([C@@H](C)CO)C[C@@H]1C	-8
O=S(=O)(c1ccccc1F)N1CC[C@@H]2[C@@H](CO)Nc3ccc(-c4ccc(F)cc4)cc3[C@@H]21	-13
C[C@H](CO)N1C[C@H](C)[C@@H](CN(C)Cc2cccc(F)c2)Oc2ncc(C#CCc3ccccc3)cc2C1=O	-9
COc1ccccc1CN1CC[C@@H]2[C@H]1c1cc(-c3ccc(C(=O)N(C)C)cc3)ccc1N[C@@H]2CO	-9
C[C@H](CO)N1C[C@H](C)[C@@H](CN(C)Cc2ccncc2)Oc2c(NC(=O)c3cnccn3)cccc2C1=O	-10
O=C(Nc1cccc(F)c1)N1CCCCN2[C@@H](CO)[C@@H](c3ccc(-c4ccccc4F)cc3)[C@@H]2C1	-6
C[C@H](CO)N1C[C@H](C)[C@H](CN(C)C(=O)NC2CCCCC2)Oc2ccc(NC(=O)Nc3ccc(C(F)(F)F)cc3)cc2C1=O	0
COc1cccc(S(=O)(=O)N2C[C@H](O)COC[C@@H]3O[C@H](CC(=O)N4CCN(C)CC4)CC[C@H]32)c1	-7
CC(=O)N(CC1CCC1)C[C@H]1N[C@H](CO)[C@@H]1c1ccc(C2=CCCC2)cc1	3
CCC(=O)N1C[C@@H](C)[C@H](OC)CN(C)C(=O)c2ccc(NC(=O)c3ccc(F)cc3)cc2OC[C@@H]1C	1
CC(=O)N1CCCCN2[C@H](CO)[C@@H](c3ccc(-c4ccc(F)cc4)cc3)[C@H]2C1	2
CC(=O)N1CCCCN2[C@H](CO)[C@H](c3ccc(-c4cccc(C)c4)cc3)[C@@H]2C1	5
CO[C@@H]1CN(C)C(=O)c2ccc(NC(C)=O)cc2OC[C@H](C)N(Cc2ccncc2)C[C@@H]1C	-3
COCC(=O)N1C[C@@H](C)[C@H](OC)CN(C)C(=O)c2ccc(NC(=O)c3cc(C)on3)cc2OC[C@@H]1C	-10
Cc1cccc(-c2ccc([C@H]3[C@@H](CO)N4CCCCN(CCC(F)(F)F)C[C@@H]34)cc2)c1	-2
CN1c2ccc(-c3cccc(C#N)c3)cc2[C@@H]2[C@@H](CCN2S(=O)(=O)c2ccccc2F)[C@H]1CO	-5
C[C@H](CO)N1C[C@H](C)[C@@H](CN(C)C(=O)Nc2ccc(F)cc2)Oc2c(NC(=O)Nc3ccc(C(F)(F)F)cc3)cccc2C1=O	2
COCC(=O)N1[C@H](CO)[C@H]2c3ccccc3N(C(=O)c3cccnc3)C[C@H]21	53
C[C@H]1CN([C@@H](C)CO)C(=O)c2cccc(NC(=O)c3ccncc3)c2O[C@@H]1CN(C)C(=O)Nc1ccc(F)cc1	-2
O=C(C1CCCC1)N1CCCCN2[C@@H](CO)[C@H](c3ccc(-c4cccc(F)c4)cc3)[C@@H]2C1	-10
CCC(=O)Nc1ccc2c(c1)C(=O)N(C)C[C@@H](OC)[C@H](C)CN(C(=O)Cc1cccnc1)[C@@H](C)CO2	1
Cc1noc(C)c1S(=O)(=O)Nc1ccc2c(c1)C(=O)N([C@H](C)CO)C[C@H](C)[C@@H](CN(C)Cc1ccc3c(c1)OCO3)O2	-7
C[C@H](CO)N1C[C@H](C)[C@@H](CN(C)C)Oc2ccc(NC(=O)Nc3ccc4c(c3)OCO4)cc2CC1=O	-1
CCS(=O)(=O)Nc1ccc2c(c1)C(=O)N(C)C[C@@H](OC)[C@H](C)CN(C(=O)CN(C)C)[C@H](C)CO2	-11
O=C(CN1CCOCC1)N1CCCCN2[C@H](C1)[C@H](c1ccc(C#Cc3ccccc3F)cc1)[C@@H]2CO	25
C[C@H]1CN([C@@H](C)CO)C(=O)c2cc(NS(=O)(=O)c3cn(C)cn3)ccc2O[C@@H]1CN(C)Cc1ccc(C(=O)Nc2ccccc2N)cc1	9
CC(=O)NC[C@@H]1[C@@H](c2ccc(-c3ccccc3F)cc2)[C@@H](CO)N1C(=O)C1CC1	-3
COc1cccc(-c2ccc([C@@H]3[C@@H](CO)N4CCCCN(C(=O)c5ccc6c(c5)OCO6)C[C@@H]34)cc2)c1	1
CCC(=O)N1CCCCN2[C@H](C1)[C@H](c1ccc(/C=C/c3ccccc3)cc1)[C@@H]2CO	12
O=C(c1ccccc1)N1CC[C@@H]2[C@H]1c1cc(-c3ccccc3F)ccc1N[C@@H]2CO	-7
CO[C@@H]1CN(C)C(=O)c2ccc(NS(=O)(=O)c3ccc(Cl)cc3)cc2OC[C@H](C)NC[C@H]1C	-25
CCCC#Cc1ccc([C@H]2[C@H](CO)N3CCCCN(S(=O)(=O)c4ccccc4F)C[C@@H]23)cc1	15
Cc1cc(C(=O)Nc2cccc3c2O[C@@H](CN(C)Cc2ccc(C(=O)O)cc2)[C@H](C)CN([C@H](C)CO)C3=O)n(C)n1	-11
COCC(=O)Nc1ccc2c(c1)C(=O)N(C)C[C@@H](OC)[C@H](C)CN(Cc1cncnc1)[C@@H](C)CO2	9
C[C@@H]1CN([C@H](C)CO)C(=O)c2cccc(NC(=O)c3ccncc3)c2O[C@H]1CN(C)C(=O)Nc1ccc2c(c1)OCO2	-16
CN1c2ccc(Br)cc2[C@@H]2[C@@H](CCN2C(=O)C2CCOCC2)[C@@H]1CO	15
CCC(=O)N1[C@H](CO)[C@H]2c3ccccc3N(C(=O)CC(F)(F)F)C[C@H]21	5
OC[C@@H]1[C@H](c2ccc(-c3cccc(F)c3)cc2)[C@@H]2CN(Cc3cncnc3)CCCCN12	-16
CC(=O)N(C)C[C@@H]1[C@@H](c2ccc(-c3cccnc3)cc2)[C@H](CO)N1C(=O)C1CC1	16
C/C=C/c1ccc([C@@H]2[C@@H](CO)N(C(=O)C3CC3)[C@H]2CN(CC)C(C)=O)cc1	14
C[C@H]1CN([C@@H](C)CO)C(=O)Cc2cc(NC(=O)Cn3cnnn3)ccc2O[C@H]1CN(C)Cc1ccc(Cl)c(Cl)c1	9
C[C@@H]1CN([C@@H](C)CO)C(=O)Cc2cc(NC(=O)NC3CCCCC3)ccc2O[C@H]1CN(C)Cc1ccc(C(=O)O)cc1	-16
O=C(C[C@@H]1CC[C@@H]2[C@H](COC[C@H](O)CN2C(=O)c2ccccc2)O1)NC1Cc2ccccc2C1	-5
C[C@H]1CN([C@@H](C)CO)C(=O)c2cc(NC(=O)CCN3CCOCC3)ccc2O[C@@H]1CN(C)C	-11
CO[C@@H]1CN(C)C(=O)c2cc(NC(=O)c3cnccn3)ccc2OC[C@H](C)N(C(C)=O)C[C@H]1C	-10
C[C@H](NC(=O)C[C@@H]1CC[C@@H]2[C@@H](COc3ccc(NC(=O)C4CCOCC4)cc3C(=O)N2C)O1)c1ccccc1	23
C[C@H](CO)N1C[C@H](C)[C@H](CN(C)Cc2ccc(-c3ccccc3)cc2)Oc2ccc(NC(=O)CCC(F)(F)F)cc2C1=O	3
CCCNC(=O)C[C@@H]1CC[C@H]2[C@@H](COC[C@@H](O)CN2C(=O)Nc2ccc3c(c2)OCO3)O1	-12
COc1ccc(S(=O)(=O)N2CCCCN3[C@@H](CO)[C@@H](c4ccc(C5=CCCC5)cc4)[C@@H]3C2)cc1	7
O=C(C1CCC1)N1C[C@@H]2[C@H](c3ccccc31)[C@H](CO)N2C(=O)Nc1cccc(F)c1	14
COCC(=O)N1C[C@H](C)[C@@H](OC)CN(C)C(=O)c2cc(NC(=O)c3ccccc3)ccc2OC[C@H]1C	-7
COc1ccccc1CN1[C@@H](CO)[C@@H]2c3ccccc3N(C(=O)c3cccnc3)C[C@@H]21	7
CC(C)C#Cc1ccc([C@@H]2[C@H]3CN(CC4CC4)CCCCN3[C@H]2CO)cc1	13
COc1ccc(CN(C)C[C@H]2Oc3ccc(NS(=O)(=O)c4ccc(Cl)cc4)cc3CC(=O)N([C@@H](C)CO)C[C@@H]2C)cc1	2
CO[C@@H]1CN(C)C(=O)c2ccc(NC(=O)c3cccnc3)cc2OC[C@@H](C)N(CC2CCCCC2)C[C@H]1C	7
Further entries:
SMILES	Yeast UUG start
CCCNC(=O)[C@H]1[C@H](CO)[C@H]2Cn3c(ccc(-c4ccccc4)c3=O)[C@@H]1N2Cc1ccccc1F	19
CCN(C[C@@H]1N[C@H](CO)[C@H]1c1ccc(-c2cccc(F)c2)cc1)C(=O)COC	-5
C/C=C/c1ccc([C@H]2[C@H](CO)N3CCCCN(C(=O)Nc4cc(F)ccc4F)C[C@@H]23)cc1	-1
O=C([C@H]1N[C@H]2c3ccc(C4=CCCC4)c(=O)n3C[C@H]2[C@@H]1CO)N1CCc2ccccc2C1	15
CC(C)NC(=O)Nc1ccc2c(c1)C(=O)N([C@H](C)CO)C[C@@H](C)[C@@H](CN(C)C(=O)NC(C)C)O2	0
COc1ccc(CN(C)C[C@@H]2Oc3ccc(NC(=O)Cn4cnnn4)cc3CC(=O)N([C@@H](C)CO)C[C@H]2C)cc1	-5
O=C(c1ccccc1F)N1CC[C@@H]2[C@@H](CO)Nc3ccc(C#Cc4ccccc4)cc3[C@@H]21	-6
CO[C@H]1CN(C)C(=O)c2cc(NC(=O)C3CC3)ccc2OC[C@H](C)N(Cc2nccs2)C[C@@H]1C	-12
O=S(=O)(c1ccccc1)N1C[C@H]2[C@@H](c3ccccc31)[C@@H](CO)N2Cc1ccc(F)cc1	4
C[C@H]1CN([C@@H](C)CO)C(=O)c2cccc(NC(=O)Nc3ccc(C(F)(F)F)cc3)c2O[C@H]1CN(C)Cc1ccc2c(c1)OCO2	6
Cc1ccc(S(=O)(=O)N(C)C[C@@H]2Oc3ccc(NC(=O)Nc4ccc(C(F)(F)F)cc4)cc3C(=O)N([C@H](C)CO)C[C@@H]2C)cc1	-11
COCC#Cc1ccc([C@@H]2[C@@H](CO)N3CCCCN(Cc4cncnc4)C[C@@H]23)cc1	-14

Among those listed so far, 8 have an aryl methoxy group.
SMILES	Yeast UUG start
COc1ccc(NC(=O)N2CC[C@@H]3[C@@H](CO)N(C)c4ccc(-c5cccc(C(=O)N(C)C)c5)cc4[C@@H]32)cc1	10
COc1ccccc1CN1CC[C@@H]2[C@H]1c1cc(-c3ccc(C(=O)N(C)C)cc3)ccc1N[C@@H]2CO	-9
COc1cccc(S(=O)(=O)N2C[C@H](O)COC[C@@H]3O[C@H](CC(=O)N4CCN(C)CC4)CC[C@H]32)c1	-7
COc1cccc(-c2ccc([C@@H]3[C@@H](CO)N4CCCCN(C(=O)c5ccc6c(c5)OCO6)C[C@@H]34)cc2)c1	1
COc1ccc(S(=O)(=O)N2CCCCN3[C@@H](CO)[C@@H](c4ccc(C5=CCCC5)cc4)[C@@H]3C2)cc1	7
COc1ccccc1CN1[C@@H](CO)[C@@H]2c3ccccc3N(C(=O)c3cccnc3)C[C@@H]21	7
COc1ccc(CN(C)C[C@H]2Oc3ccc(NS(=O)(=O)c4ccc(Cl)cc4)cc3CC(=O)N([C@@H](C)CO)C[C@@H]2C)cc1	2
COc1ccc(CN(C)C[C@@H]2Oc3ccc(NC(=O)Cn4cnnn4)cc3CC(=O)N([C@@H](C)CO)C[C@H]2C)cc1	-5

Additional results:
SMILES	Yeast UUG start
COc1ccccc1NC(=O)N1CCCCN2[C@H](C1)[C@H](c1ccc(C#CC3CCCC3)cc1)[C@@H]2CO	0
CCCN1C[C@H](C)[C@@H](OC)CN(C)C(=O)c2ccc(NC(=O)C3CC3)cc2OC[C@@H]1C	24
Cc1cccc(-c2ccc([C@@H]3[C@@H](CO)N4CCCCN(S(=O)(=O)c5cn(C)cn5)C[C@H]34)cc2)c1	-6
OC[C@@H]1[C@@H](c2ccc(-c3cccc(F)c3)cc2)[C@@H]2CN(CCC(F)(F)F)CCCCN12	-5
C[C@@H](NC(=O)C[C@H]1CC[C@@H]2[C@H](COC[C@H](O)CN2C(=O)Nc2cccc(F)c2)O1)c1ccccc1	25
CCS(=O)(=O)Nc1ccc2c(c1)C(=O)N(C)C[C@H](OC)[C@@H](C)CN(C(=O)CN(C)C)[C@H](C)CO2	-10
CCC(=O)N1CCCCN2[C@@H](CO)[C@H](c3ccc(-c4cccc(C(=O)N(C)C)c4)cc3)[C@@H]2C1	-6
C[C@@H]1CN([C@@H](C)CO)C(=O)c2cc(NS(=O)(=O)c3ccc(Cl)cc3)ccc2O[C@H]1CN(C)S(=O)(=O)c1cn(C)cn1	2
CCCNC(=O)C[C@H]1CC[C@H]2[C@@H](COC[C@@H](O)CN2Cc2ccc(Cl)c(Cl)c2)O1	24
O=C(C[C@@H]1CC[C@@H]2[C@H](COC[C@@H](O)CN2C(=O)Nc2ccccc2)O1)NCCCN1CCOCC1	-10
CCC(=O)N1CCCCN2[C@@H](CO)[C@H](c3ccc(C#Cc4ccccc4F)cc3)[C@@H]2C1	7
COCC(=O)N1[C@H](CO)[C@H]2c3ccccc3N(C(=O)c3ccccc3)C[C@H]21	-5
CCC(=O)Nc1ccc2c(c1)OC[C@@H](C)N(C(=O)Cc1ccccn1)C[C@@H](C)[C@H](OC)CN(C)C2=O	5
COc1cccc(-c2ccc3c(c2)[C@H]2[C@H](CCN2S(=O)(=O)C2=NC(C)C=N2)[C@H](CO)N3C)c1 (stereo not given in full)	-14
